FGF22 binding – FGF22 (human) thermal shift binding; Q9HCT0; recombinant FGF22 thermal shift, SYPRO orange fluorescence; percent of sucrose octasulfate shift, DMSO zero; calls only at 9.99 µM; hit rate 1.5% among 340,000;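 active = melting point raised past a set limit in the mean and every replicate; three in four hits are not shown here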
Target sequence (Q9HCT0 whole entry, looked up): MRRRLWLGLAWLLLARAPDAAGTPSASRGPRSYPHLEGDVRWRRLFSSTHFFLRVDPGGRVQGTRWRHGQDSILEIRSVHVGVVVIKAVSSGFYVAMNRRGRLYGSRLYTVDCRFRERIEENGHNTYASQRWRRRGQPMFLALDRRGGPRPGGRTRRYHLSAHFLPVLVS
Ecoli rRNA inh – inhibitors of bacterial rRNA selective over humanized ribosomes | GFP signal change (wild-type ribosome), % (test concentration not listed) | hit rate 1.6% among 350,000 | E. coli WT GFP vs humanized-ribosome RFP mutants, fluorescence, 24 h; active compounds read low; DMSO median 0, no signal -100;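 active = significant combined selectivity score with lowered wild-type GFP, culture density cut under 30%, mutant RFP and density less affected; inactive = any of these conditions unmet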; also: one replicate is shown; some compounds called inactive have numbers as strong as hits
Ecoli rRNA inh OD600 – recorded beside Ecoli rRNA inh, whose call it bears; OD600 change, %; measured here: OD600 growth;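 optical density of the mix in the first replicate; 0 = DMSO median and -100 = no signal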
Ecoli rRNA inh RFP – second read-out of Ecoli rRNA inh, no call of its own (marks repeat the call); RFP signal change, %; measured here: RFP humanized mutant strains;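 first replicate; 0 = DMSO median and -100 = no signal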
Starred values were filed as active, the others as inactive; i = inactive; · = not tested or not shown; + = active, no number. These rows are one share of the data; count on the stated rates, not on these rows.

SMILES | FGF22 binding | Ecoli rRNA inh | Ecoli rRNA inh OD600 | Ecoli rRNA inh RFP
COc1ccc(NC(=O)N2CC[C@@H]3[C@H]2c2cc(-c4cccc(C(=O)N(C)C)c4)ccc2N(C)[C@H]3CO)cc1 | i | -4 | 15 | 0.8
C[C@@H]1CN([C@@H](C)CO)C(=O)c2cc(NC(=O)Nc3ccccc3)ccc2O[C@H]1CN(C)CC1CCCCC1 | i | 0 | 4 | -4.1
COc1ccc(S(=O)(=O)N(C)C[C@H]2Oc3ncc(/C=C/c4ccccc4)cc3C(=O)N([C@H](C)CO)C[C@H]2C)cc1 | i | -3 | -3 | 0.2
C[C@H](CO)N1C[C@H](C)[C@@H](CN(C)C(=O)NC2CCCC2)Oc2ncc(-c3ccccc3F)cc2C1=O | i | -2 | -1 | -0.5
COc1ccc(S(=O)(=O)Nc2ccc3c(c2)C(=O)N([C@H](C)CO)C[C@@H](C)[C@@H](CN(C)S(=O)(=O)c2ccc(F)cc2)O3)cc1 | i | -2 | -9 | 1.7
Cc1noc(C)c1S(=O)(=O)Nc1cccc2c1O[C@@H](CN(C)Cc1ccccc1)[C@@H](C)CN([C@H](C)CO)C2=O | i | 1 | 9 | -0.9
C[C@H](CO)N1C[C@H](C)[C@H](CN(C)C(=O)Nc2ccccc2)Oc2ccc(NC(=O)CCC(F)(F)F)cc2C1=O | i | 3 | 3 | -0.6
O=C(Nc1ccc2c(c1)OCO2)N[C@H]1CC[C@@H](CCNC(=O)C2CCCC2)O[C@H]1CO | i | -1 | -2 | -1.8
CCN1[C@@H]2c3ccc(-c4ccccc4)c(=O)n3C[C@@H]2[C@@H](CO)[C@@H]1C(=O)NCc1ccccc1 | i | -3 | -8 | 5.8
COCc1cn(CC[C@H]2CC[C@H](NC(=O)Cc3cccnc3)[C@@H](CO)O2)nn1 | i | 0 | -4 | -1.7
CO[C@H]1CN(C)C(=O)c2cc(NC(=O)C3CC3)ccc2OC[C@@H](C)N(Cc2cccnc2)C[C@@H]1C | i | -1 | -4 | 0.7
COCc1[nH]nc2c1C(c1ccc3c(c1)OCO3)N(Cc1ccccc1)C2=O (stereo not drawn) | · | -9 | -15 | 2.4
C[C@@H]1CN([C@H](C)CO)C(=O)c2cc(NS(=O)(=O)c3ccc(Cl)cc3)ccc2O[C@H]1CN(C)Cc1ccc(Oc2ccccc2)cc1 | i | 1 | 0 | -2.1
CCC(=O)N(C)C[C@@H]1Oc2cc(C#CCC3CCCC3)ccc2S(=O)(=O)N([C@H](C)CO)C[C@@H]1C | i | -15 | -48 | 21
Cc1ccc([C@H]2C[C@]34CN(Cc5ccccc5)S(=O)(=O)[C@H]3C[C@H]2O4)cc1 | i | 7 | 11 | 2.8
C[C@H](CO)N1C[C@H](C)[C@@H](CN(C)Cc2ccc(F)cc2)Oc2ncc(C3=CCCC3)cc2C1=O | i | -4 | -9 | 0.5
COc1ccc2c3c([nH]c2c1)[C@@H](CO)N(Cc1ccccc1)CC31CN(C(C)=O)C1 | i | 1 | 2 | 2.5
C[C@H](CO)N1C[C@H](C)[C@@H](CN(C)S(=O)(=O)c2ccc(Cl)cc2)Oc2ccc(NC(=O)Nc3ccccc3)cc2CC1=O | i | 1 | 0 | 1.1
C[C@@H]1CN([C@H](C)CO)S(=O)(=O)c2ccc(-c3cncnc3)cc2O[C@H]1CN(C)Cc1cccnc1 | i | -5 | -4 | -0.6
CC(C)NC(=O)N(C)C[C@H]1Oc2ccc(NC(=O)CCCN(C)C)cc2C(=O)N([C@H](C)CO)C[C@H]1C | i | 3 | 5 | -0.7
C[C@@H]1CCCCO[C@@H](CN(C)Cc2ccccc2)[C@H](C)CN([C@@H](C)CO)C(=O)c2cc(NS(=O)(=O)c3cccs3)ccc2O1 | i | -1 | -7 | 0.0
Cc1ccc(S(=O)(=O)N(C)C[C@@H]2Oc3cc(C4=CCCC4)ccc3S(=O)(=O)N([C@@H](C)CO)C[C@@H]2C)cc1 | + | 0 | 3 | 0.8
C[C@H](CO)N1C[C@H](C)[C@H](CN(C)CC2CC2)Oc2cc(-c3cccc(C#N)c3)ccc2S1(=O)=O | i | 1 | 3 | 1.0
COCC(=O)Nc1ccc2c(c1)OC[C@H](C)N(C(=O)Cc1ccccn1)C[C@H](C)[C@H](OC)CN(C)C2=O | i | 1 | 3 | 0.4
COCC#Cc1ccc2c(c1)O[C@@H](CN(C)C(=O)c1ccccc1)[C@H](C)CN([C@H](C)CO)S2(=O)=O | i | -3 | -12 | -3.8
C[C@H](CO)N1C[C@H](C)[C@H](CN(C)C(=O)Cc2ccccc2)Oc2cc(C#Cc3ccccc3F)ccc2S1(=O)=O | i | 2 | 17 | 0.6
C[C@@H](NC(=O)C[C@H]1CC[C@@H]2[C@H](COC[C@@H](O)CN2C)O1)c1ccccc1 | i | 9 | 3 | -1.2
C[C@H](CO)N1C[C@H](C)[C@@H](CN(C)Cc2ccc(-c3ccccc3)cc2)Oc2ccc(NS(=O)(=O)c3cccs3)cc2CC1=O | i | -1 | -6 | 3.9
COc1ccc2c3c([nH]c2c1)[C@@H](CO)N(C(=O)C1CCCC1)CC31CCN(Cc2nccs2)CC1 | i | -4 | -7 | -4.2
O=S(=O)(Cc1ccccc1)N1[C@H](CO)[C@@H](c2ccccc2)C12CN(CCC(F)(F)F)C2 | i | -4 | 4 | 2.4

Exported with tabs: entries from further up
Structure	FGF22 binding	Ecoli rRNA inh	Ecoli rRNA inh OD600	Ecoli rRNA inh RFP
C[C@@H]1CCCCO[C@@H](CN(C)Cc2ccccc2)[C@H](C)CN([C@@H](C)CO)C(=O)c2cc(NS(=O)(=O)c3cccs3)ccc2O1	i	-1	-7	0.0
Cc1ccc(S(=O)(=O)N(C)C[C@@H]2Oc3cc(C4=CCCC4)ccc3S(=O)(=O)N([C@@H](C)CO)C[C@@H]2C)cc1	+	0	3	0.8
C[C@H](CO)N1C[C@H](C)[C@H](CN(C)CC2CC2)Oc2cc(-c3cccc(C#N)c3)ccc2S1(=O)=O	i	1	3	1.0
COCC(=O)Nc1ccc2c(c1)OC[C@H](C)N(C(=O)Cc1ccccn1)C[C@H](C)[C@H](OC)CN(C)C2=O	i	1	3	0.4
COCC#Cc1ccc2c(c1)O[C@@H](CN(C)C(=O)c1ccccc1)[C@H](C)CN([C@H](C)CO)S2(=O)=O	i	-3	-12	-3.8
C[C@H](CO)N1C[C@H](C)[C@H](CN(C)C(=O)Cc2ccccc2)Oc2cc(C#Cc3ccccc3F)ccc2S1(=O)=O	i	2	17	0.6

Additional structures
SMILES | FGF22 binding | Ecoli rRNA inh | Ecoli rRNA inh OD600 | Ecoli rRNA inh RFP
COc1ccccc1-c1ccc([C@H]2[C@H](CO)N3CCCCN(S(=O)(=O)c4cn(C)cn4)C[C@@H]23)cc1 | i | 1 | -1 | -2.5
C[C@@H]1CCCCO[C@H](CN(C)C(=O)CCCN(C)C)[C@H](C)CN([C@H](C)CO)C(=O)c2cc(NC(=O)CCC(F)(F)F)ccc2O1 | i | 0 | 8 | 0.4
C[C@@H]1CN([C@H](C)CO)C(=O)Cc2cc(NS(=O)(=O)c3ccc(F)cc3)ccc2O[C@H]1CN(C)C(=O)Nc1ccc(F)cc1 | i | -1 | 5 | -4.2
COCc1cn(CC[C@H]2CC[C@H](NC(=O)CCN3CCCCC3)[C@H](CO)O2)nn1 | i | 0 | 3 | -2.0
CN(C)C(=O)C[C@H]1CC[C@@H]2[C@H](COc3ccc(NC(=O)Nc4cccc(Cl)c4)cc3C(=O)N2C)O1 | i | 2 | -4 | 1.7
COc1ccc(NC(=O)N(C)C[C@@H]2Oc3ccc(NC(=O)Cc4cn(C)c5ccccc45)cc3C(=O)N([C@@H](C)CO)C[C@H]2C)cc1 | i | 0 | -1 | 0.4
CN(C)Cc1cn(CC[C@H]2CC[C@H](NS(=O)(=O)c3ccc(-c4ccccc4)cc3)[C@@H](CO)O2)nn1 | i | -2 | -5 | 2.8
CO[C@H]1CN(C)C(=O)c2ccc(NC(=O)c3cccc(F)c3)cc2OC[C@H](C)N(C(C)=O)C[C@@H]1C | i | -3 | -2 | -1.3
C[C@@H]1CN([C@@H](C)CO)C(=O)c2cc(C#Cc3cccc(F)c3)cnc2O[C@@H]1CN(C)C(=O)c1ccccc1F | i | 0 | -5 | 3.8
O=C(C[C@@H]1CC[C@H]2[C@@H](COC[C@@H](O)CN2Cc2ccc(Oc3ccccc3)cc2)O1)Nc1nccs1 | i | -29 | -63 | 18
CC(C)NC(=O)N(C)C[C@H]1OCCCC[C@@H](C)Oc2ccc(NC(=O)Cc3ccccc3)cc2C(=O)N([C@@H](C)CO)C[C@H]1C | i | 1 | -6 | -2.8
C[C@H](CO)N1C[C@H](C)[C@H](CN(C)S(=O)(=O)c2ccccc2)OCCCC[C@H](C)Oc2ccc(NC(=O)CCCN(C)C)cc2C1=O | i | -3 | -3 | -1.3
C[C@H]1CN([C@@H](C)CO)C(=O)c2cc(C#CCN(C)C)cnc2O[C@H]1CN(C)S(C)(=O)=O | i | 4 | 1 | -1.1
C[C@H]1CN([C@@H](C)CO)C(=O)c2c(c3ccccc3n2C)-c2ccccc2CO[C@@H]1CN(C)C(=O)CCC(F)(F)F | i | 3 | -2 | 0.5
N#C[C@H]1[C@@H](c2ccc(-c3ccc(F)cc3)cc2)[C@H](CO)N1C(=O)Cc1ccccc1 | i | -57 | -73 | -16
C/C=C/c1ccc2c(c1)O[C@@H](CN(C)C(C)=O)[C@H](C)CN([C@H](C)CO)S2(=O)=O | i | -1 | 1 | -3.7
C[C@@H]1CCCCO[C@H](CN(C)Cc2ccccc2)[C@@H](C)CN([C@H](C)CO)C(=O)c2cc(NC(=O)CCCN(C)C)ccc2O1 | i | 1 | -4 | 3.6
O=C(C[C@@H]1CC[C@@H](NC(=O)C2CCC2)[C@@H](CO)O1)NCc1ccccc1Cl | i | 3 | -3 | -0.9
CCCC(=O)Nc1ccc2c(c1)C(=O)N(C)C[C@H](OC)[C@H](C)CN(Cc1nccs1)[C@H](C)CO2 | i | 0 | -4 | 2.5
COc1ccc(S(=O)(=O)Nc2ccc3c(c2)C(=O)N([C@@H](C)CO)C[C@@H](C)[C@@H](CN(C)S(=O)(=O)c2ccc(F)cc2)OCCCC[C@H](C)O3)cc1 | i | 0 | 2 | -0.7
CCCNC(=O)N1C[C@@H](C)[C@@H](OC)CN(C)C(=O)c2ccc(NC(=O)CCC)cc2OC[C@@H]1C | i | 4 | 5 | -3.2
O=C(Nc1ccc(F)cc1)N[C@@H]1CC[C@H](CCNC(=O)c2cc(Cl)cc(Cl)c2)O[C@H]1CO | i | -2 | -15 | 10
O=C(Nc1cccc(Cl)c1)N1C[C@H]2[C@@H](c3ccccc31)[C@H](CO)N2C(=O)C1CC1 | i | -16 | -13 | 4.2
COc1ccc(C#Cc2ccc3c(c2)O[C@@H](CN(C)S(=O)(=O)c2ccccc2F)[C@@H](C)CN([C@@H](C)CO)S3(=O)=O)cc1 | i | 3 | 10 | -1.2
COC(=O)C[C@@H]1CC[C@@H]2[C@@H](COc3ccc(NC(=O)c4ccc(F)cc4)cc3C(=O)N2C)O1 | i | 0 | -5 | 0.8
C[C@@H]1CN([C@H](C)CO)C(=O)c2cccc(NC(=O)Nc3ccc(C(F)(F)F)cc3)c2O[C@@H]1CN(C)Cc1ccc2c(c1)OCO2 | i | -10 | -45 | 2.5
CCCNC(=O)Nc1ccc2c(c1)C(=O)N(C)C[C@H](OC)[C@@H](C)CN(C(=O)C1CCCCC1)[C@@H](C)CO2 | i | 0 | -1 | 0.1
COc1ccc(C#Cc2cnc3c(c2)C(=O)N([C@@H](C)CO)C[C@@H](C)[C@H](CN(C)CC2CCOCC2)O3)cc1 | i | 7 | 11 | 0.7
Cc1noc(C)c1NC(=O)N(C)C[C@@H]1Oc2ccc(NS(=O)(=O)c3c(C)noc3C)cc2CC(=O)N([C@@H](C)CO)C[C@H]1C | i | 9 | 8 | 3.6
CC(C)NC(=O)Nc1ccc2c(c1)C(=O)N([C@H](C)CO)C[C@H](C)[C@@H](CN(C)C(=O)C1CCCCC1)OCCCC[C@H](C)O2 | i | -2 | 2 | 1.1
O=S(=O)(c1ccccc1F)N1CCCCN2[C@H](C1)[C@@H](c1ccc(-c3cccnc3)cc1)[C@@H]2CO | i | -6 | -10 | 5.1
COc1ccc(NC(=O)N2C[C@H]3[C@@H](c4ccccc42)[C@@H](CO)N3C(=O)C2CCCCC2)cc1 | i | 2 | 2 | 3.0
C[C@@H]1CN([C@@H](C)CO)C(=O)c2cc(C3=CCCCC3)cnc2O[C@H]1CN(C)C(=O)c1cccnc1 | i | -2 | 11 | -1.3
Cc1noc(C)c1NC(=O)N(C)C[C@H]1OCCCC[C@@H](C)Oc2ccc(NC(=O)c3ccncc3)cc2C(=O)N([C@H](C)CO)C[C@H]1C | i | 0 | -2 | -0.2
C[C@H](CO)N1C[C@H](C)[C@H](CN(C)C(=O)Nc2ccccc2)Oc2c(NC(=O)C3CCOCC3)cccc2C1=O | i | 0 | 10 | 0.0
C[C@@H]1CN([C@@H](C)CO)C(=O)c2cccc(NC(=O)c3ccc(-c4nccs4)cc3)c2O[C@@H]1CN(C)S(=O)(=O)c1ccc(F)cc1 | i | -2 | 9 | 0.6

Screening results: PubChem, Broad Institute
